YB-1 expr inh: YB-1 expression inhibition | delta delta Cp (YB-1 minus CDIP) (concentration not given with the values) | U2OS, qRT-PCR YB-1 vs CDIP delta delta Cp, 16 h; hits give high values; zero = DMSO, each unit about twofold | hit rate 0.37% among 30,000;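 active means delta delta Cp rounded down to an integer at or above 3, about 3 SD of DMSO wells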;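 further: higher means less YB-1 transcript or more CDIP transcript relative to DMSO; stock transfer was 100 nL into about 100 µL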
MITF inhib: blocks MITF activity | TRPM1 promoter luciferase, luminescence, 24 h | hit rate 0.28% among 37,000 | inhibition, % (concentration not given with the values);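 active means most replicates at 85% or more, or half of them and the mean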;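 further: human melanocyte line stably carrying TRPM1 promoter luciferase reporter; 0% = vehicle wells and 100% = a positive control; the first replicate is given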
Shh pathway inh: blocks Sonic Hedgehog signaling; Shh-LIGHT2 Gli-luciferase reporter, 30 h; inhibition, % (test concentration not listed); hit rate 2.1% among 22,000; AID 2313;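 active means replicate mean of 65% or more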;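 further: pathway switched on by Shh-conditioned medium diluted 1 in 25 in low serum; 100 nL library stock added to about 40 µL; 0% = median of neutral wells and 100% = positive control level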
PD-1 reversal: reversal of PD-1 mediated T-cell inhibition; primary human CD4 T cells, PD-L1 beads, CellTiter-Glo 96 h; activation, % (concentration not given with the values); 29,000 tested, under 10 active; AID 2316;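 active means replicate mean of 50% or more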;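 further: 0% = median vehicle wells and 100% = positive control; 100 nL library stock added to about 50 µL; numbers are from one replicate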
Starred values were filed as active, the others as inactive; nt = not tested or not shown.

Below each SMILES: YB-1 expr inh	MITF inhib	Shh pathway inh	PD-1 reversal
- COc1ccc(NC(=O)Nc2cccc3c2O[C@H](CN(C)Cc2ccc(Oc4ccccc4)cc2)[C@H](C)CN([C@H](C)CO)C3=O)cc1
→ 0.11	3	24	-1.1
- Cc1noc(C)c1NC(=O)N(C)C[C@H]1Oc2ccc(NC(=O)NC(C)C)cc2C(=O)N([C@@H](C)CO)C[C@@H]1C
→ -0.096	-2	-9	0.0
- C[C@H]1CN([C@@H](C)CO)C(=O)c2cc(NC(=O)Cc3cn(C)c4ccccc34)ccc2O[C@@H]1CN(C)S(=O)(=O)c1ccc(F)cc1
→ -0.39	20	0	-0.2
- COc1ccc(OC)c(NC(=O)COc2ccc3c4c(c(=O)oc3c2)CCC4)c1
→ nt	-8	nt	0.7
- O=C(CSc1nc(-c2ccccc2)cc(C(F)(F)F)n1)Nc1cccc(Cl)c1Cl
→ nt	6	nt	-0.8
- CCOC(=O)c1sc(NC(=S)Nc2cnccn2)c(C(=O)OCC)c1C
→ nt	-23	nt	-5.6
- c1ccc(-c2nc(-c3cccs3)[nH]c2-c2ccccc2)cc1
→ -0.41	31	14	-30
- C[C@@H]1CN([C@H](C)CO)C(=O)Cc2cc(NC(=O)Cn3cnnn3)ccc2O[C@H]1CN(C)S(C)(=O)=O
→ -0.17	2	-23	nt
- Cn1c(=O)c2c(nc(SCc3nn[nH]n3)n2Cc2ccccc2)n(C)c1=O
→ nt	-7	nt	1.7
- C[C@H](CO)N1C[C@H](C)[C@H](CN(C)S(=O)(=O)c2cn(C)cn2)Oc2ccc(NC(=O)Nc3cccc4ccccc34)cc2CC1=O
→ 0.32	8	24	0.8
- C[C@@H]1CN([C@H](C)CO)C(=O)c2cc(NC(=O)Nc3cccc4ccccc34)ccc2O[C@@H]1CN(C)S(=O)(=O)c1cccs1
→ 0.34	4	4	0.6
- C[C@@H]1CN([C@H](C)CO)C(=O)c2cc(N(C)C)ccc2O[C@@H]1CN(C)Cc1ccc(C(=O)O)cc1
→ 0.1	2	-26	nt
- Cc1ccc(NC(=O)Cc2n[nH]c(=S)n2C)cc1
→ nt	-9	nt	0.4
- Cc1ccc(S(=O)(=O)N(C)C[C@H]2Oc3ccc(NC(=O)NC(C)C)cc3C(=O)N([C@@H](C)CO)C[C@@H]2C)cc1
→ -0.33	-5	-29	1.1
- COc1cc(C2Nc3ccccc3S2)cc(OC)c1OC (stereo unspecified)
→ -0.33	1	39	-0.1
- Cc1noc(C)c1S(=O)(=O)N(C)C[C@@H]1Oc2ccc(NS(=O)(=O)c3ccccc3)cc2CC(=O)N([C@@H](C)CO)C[C@@H]1C
→ -0.69	-7	-16	-0.3
- O=c1c2ccccc2nc(SCc2cccc3nsnc23)n1-c1ccccc1
→ nt	1	nt	-1.9
- Cc1noc(C)c1S(=O)(=O)Nc1ccc2c(c1)C(=O)N([C@@H](C)CO)C[C@@H](C)[C@H](CN(C)S(C)(=O)=O)O2
→ 0.62	-4	-16	1.5
- C=CCn1cc(C=C2C(=O)N(C)C(=S)N(C)C2=O)c2ccccc21
→ 1	29	-15	0.7
- O=C(CSc1nc2ccccc2o1)Nc1ccc(N2CCOCC2)c(Cl)c1
→ nt	-18	nt	1.2

The results go on.
Below each SMILES: YB-1 expr inh	MITF inhib	Shh pathway inh	PD-1 reversal
- C[C@H](CO)N1C[C@H](C)[C@H](CN(C)C(=O)Nc2cccc3ccccc23)Oc2ccc(NC(=O)Nc3ccc(F)cc3)cc2CC1=O
→ -0.68	-10	nt	nt
- C[C@H]1CN([C@@H](C)CO)C(=O)c2cccc(NS(=O)(=O)c3ccc(F)cc3)c2O[C@@H]1CN(C)C(=O)Nc1ccc(C(F)(F)F)cc1
→ 0.32	-4	-24	-1.2
- CCNS(=O)(=O)c1cc(-c2nnc(Nc3ccc(F)cc3)c3ccccc23)ccc1C
→ -0.035	69	56	-1.0
- C[C@H]1CN([C@@H](C)CO)C(=O)Cc2cc(NC(=O)CCC(F)(F)F)ccc2O[C@@H]1CN(C)Cc1ccc(Cl)c(Cl)c1
→ -0.017	12	12	0.1
- Cc1cc(Cl)ccc1NC(=O)CN(C)S(=O)(=O)c1ccc(F)cc1
→ nt	-5	nt	0.2
- CC1=CC(=O)C2C(C)(C)CCC[C@]2(C)[C@@]1(O)CCc1ccoc1 (stereo partly specified)
→ 0.11	13	30	nt
- C[C@H]1CN([C@@H](C)CO)C(=O)Cc2cc(NS(C)(=O)=O)ccc2O[C@H]1CN(C)Cc1ccc(C(=O)Nc2ccccc2N)cc1
→ -0.43	7	nt	-0.8
- Cc1ccc(S(=O)(=O)N(C)C[C@@H]2Oc3c(NS(=O)(=O)c4cccs4)cccc3C(=O)N([C@H](C)CO)C[C@H]2C)cc1
→ 0.3	-6	11	2.0
- C[C@@H]1CCCCO[C@@H](CN(C)CC2CC2)[C@@H](C)CN([C@H](C)CO)C(=O)c2cc(NS(=O)(=O)c3ccccc3)ccc2O1
→ 0.21	-27	-1	nt
- C[C@H](NC[C@H](O)CP(=O)(O)Cc1ccccc1)c1ccc(Cl)c(Cl)c1
→ 0.067	-8	-31	nt
- CNC[C@@H]1Oc2ccc(NS(=O)(=O)c3c(C)noc3C)cc2CC(=O)N([C@@H](C)CO)C[C@@H]1C
→ 0.11	-1	1	nt
- Cc1nn(Cc2nc(C(C)(C)C)cs2)c(C)c1Br
→ 0.075	-9	12	-0.8
- C[C@H]1CN([C@@H](C)CO)C(=O)c2cccc(NC(=O)c3nc4ccccc4s3)c2O[C@H]1CN(C)Cc1ccc(Oc2ccccc2)cc1
→ -0.15	-15	18	1.4
- CCc1cc(C(=O)OC)c(NC(=O)CC2Sc3ccc(C(F)(F)F)cc3NC2=O)s1 (stereo unspecified)
→ nt	15	nt	0.9
- Cc1c(Br)c([N+](=O)[O-])nn1CC(=O)Nc1cccnc1
→ nt	-5	nt	1.5
- CC(=O)Nc1ccc(C(=O)Nc2ccc(OCC(=O)O)cc2)cc1
→ nt	-11	nt	-1.4
- Cc1ccc(S(=O)(=O)N(C)C[C@@H]2Oc3ccc(NC(=O)CCCCCC(=O)Nc4ccccc4N)cc3C(=O)N([C@@H](C)CO)C[C@@H]2C)cc1
→ -0.21	1	nt	-0.9
- C[C@@H]1CN([C@H](C)CO)C(=O)c2cccc(NC(=O)c3ccc(-c4nccs4)cc3)c2O[C@@H]1CN(C)CC1CCCCC1
→ 0.48	-9	-4	-0.2
- c1cncc(C2OCC3(CO2)COC(c2cccnc2)OC3)c1 (stereo unspecified)
→ -0.43	-7	-21	-0.1
- O=c1cc(O)c2sc3nc(-c4cccnc4)c4c(c3c2[nH]1)CCCC4
→ -0.39	-1	0	-0.3

Next results
Below each SMILES: YB-1 expr inh	MITF inhib	Shh pathway inh	PD-1 reversal
- Cc1cc(C(=O)Nc2cccc3c2O[C@@H](CN(C)C(=O)Nc2cccc4ccccc24)[C@@H](C)CN([C@H](C)CO)C3=O)n(C)n1
→ -0.29	-4	-24	0.3
- CC1=CC(C)(C)N(S(=O)(=O)c2ccc(C)cc2)c2ccccc21
→ -0.28	59	68*	-8.9
- C[C@H](CO)N1C[C@H](C)[C@H](CN(C)Cc2ccc(-c3ccccc3)cc2)Oc2ccc(NC(=O)Cc3ccccc3)cc2CC1=O
→ 0.23	37	-13	-0.3
- Cc1ccc(S(=O)(=O)Nc2ccc3c(c2)CC(=O)N([C@H](C)CO)C[C@@H](C)[C@H](CN(C)C(=O)NC(C)C)O3)cc1
→ 0.21	-15	1	1.6
- C[C@H]1CN([C@@H](C)CO)C(=O)c2cccc(NS(=O)(=O)c3cn(C)cn3)c2O[C@H]1CN(C)C(=O)Nc1ccccc1
→ 0.3	3	-31	1.8
- Cc1nc(SCC(=O)Nc2c(C)cccc2C)n[nH]1
→ nt	-8	nt	1.4
- CCOC(=O)c1sc(NC(=O)CSc2nc3c(c(C(F)(F)F)n2)CCCC3)c(C#N)c1C
→ nt	7	nt	-3.7
- C[C@@H]1CN([C@@H](C)CO)C(=O)c2cc(N(C)C)ccc2O[C@H]1CN(C)S(=O)(=O)c1ccc(Cl)cc1
→ -0.087	-6	8	nt
- CCC(C)[C@@H](CO[C@@H](Cc1ccccc1)C(=O)N[C@@H](CCS(C)(=O)=O)C(=O)OC(C)C)NC[C@@H](N)CS (stereo partly specified)
→ 0.24	-14	-76	-5.6
- C[C@@H]1CN([C@H](C)CO)C(=O)Cc2cc(NS(=O)(=O)c3ccccc3)ccc2O[C@H]1CN(C)CC1CC1
→ 0.51	16	-57	1.1
- CCOc1ccccc1NC(=O)COc1cc(N2CCOCC2)c2ccccc2c1Cl
→ nt	-20	nt	0.9
- C[C@@H]1CN([C@@H](C)CO)C(=O)Cc2cc(NC(=O)C3CC3)ccc2O[C@@H]1CN(C)Cc1ccc(Oc2ccccc2)cc1
→ -0.052	8	-5	nt
- COc1ccc(CN(C)C[C@H]2Oc3c(NC(=O)C4CCOCC4)cccc3C(=O)N([C@H](C)CO)C[C@@H]2C)cc1
→ -0.31	-5	14	2.4
- CC(C)NC(=O)Nc1ccc2c(c1)C(=O)N([C@H](C)CO)C[C@H](C)[C@@H](CN(C)Cc1ccccc1)OCCCC[C@@H](C)O2
→ -0.48	-13	21	nt
- C[C@H]1CN([C@@H](C)CO)C(=O)c2cc(NC(=O)Nc3ccc(F)cc3)ccc2O[C@@H]1CN(C)CC1CCCCC1
→ 0.027	1	nt	0.9
- C[C@H]1CN([C@@H](C)CO)C(=O)c2cc(NC(=O)Nc3ccc4c(c3)OCO4)ccc2O[C@@H]1CN(C)Cc1ccccc1
→ nt	7	nt	1.4
- COC1=CC(=O)O/C1=C(/OC)[C@@H]1O[C@H]1c1ccccc1
→ -0.48	-4	-6	0.4
- COc1ccc(C(NC(C)=O)c2ccc3cccnc3c2O)cc1OC (stereo unspecified)
→ nt	69	nt	-11
- Cc1noc(C)c1NC(=O)N(C)C[C@H]1Oc2c(NC(=O)C3CCCCC3)cccc2C(=O)N([C@H](C)CO)C[C@@H]1C
→ 1.1	-4	24	nt
- Cc1ccccc1-c1nc(SCC(=O)c2cccc([N+](=O)[O-])c2)n[nH]1
→ nt	-8	nt	1.3

Next entries follow:
Below each SMILES: YB-1 expr inh	MITF inhib	Shh pathway inh	PD-1 reversal
- CCOC(=O)c1sc(SCc2ccccc2)c(S(=O)(=O)C(C)C)c1-n1cccc1
→ 0.1	-16	nt	-0.7
- CC(C)NC(=O)Nc1cccc2c1O[C@@H](CN(C)Cc1ccc(C(F)(F)F)cc1)[C@@H](C)CN([C@@H](C)CO)C2=O
→ -0.052	10	-19	-1.1
- C[C@H](CO)N1C[C@H](C)[C@H](CN(C)S(=O)(=O)c2ccc(Cl)cc2)Oc2ccc(NC(=O)Nc3ccccc3)cc2C1=O
→ 0.51	-24	13	1.0
- C[C@@H]1CN([C@@H](C)CO)C(=O)Cc2cc(NC(=O)Nc3ccc4c(c3)OCO4)ccc2O[C@@H]1CN(C)S(=O)(=O)c1ccc(Cl)cc1
→ 0.6	29	38	-2.0
- CCC(=O)OC1(C(=O)CCl)[C@@H](C)C[C@H]2[C@@H]3CCC4=CC(=O)C=C[C@]4(C)[C@@]3(F)[C@@H](O)C[C@@]21C (stereo partly specified)
→ -0.22	-31	50	nt
- C[C@@H]1CN([C@@H](C)CO)C(=O)c2cc(N(C)C)ccc2O[C@H]1CN(C)S(=O)(=O)c1cccs1
→ -0.15	2	-18	nt
- C[C@H]1CN([C@@H](C)CO)C(=O)Cc2cc(NC(=O)C3CCCCC3)ccc2O[C@@H]1CN(C)Cc1ccncc1
→ 0.22	-7	-9	-1.3
- C[C@H]1CN([C@@H](C)CO)C(=O)Cc2cc(NC(=O)CCN3CCOCC3)ccc2O[C@H]1CN(C)Cc1ccc(C(F)(F)F)cc1
→ -0.0055	-1	nt	-0.6
- O=C(COc1ccccc1[N+](=O)[O-])Nc1ccc2oc(-c3ccc(Cl)cc3)nc2c1
→ nt	-37	nt	3.8
- C[C@@H]1CN([C@H](C)CO)C(=O)Cc2cc(NS(=O)(=O)c3ccc(F)cc3)ccc2O[C@H]1CN(C)S(=O)(=O)c1ccc(Cl)cc1
→ 0.42	2	-10	0.6
- CC(C)c1ccccc1OCC(=O)Nc1sc2c(c1C(N)=O)CCCC2
→ nt	-2	nt	-3.3
- C[C@@H]1CN([C@@H](C)CO)C(=O)c2cccc(NC(=O)C3CCCCC3)c2O[C@@H]1CN(C)Cc1ccccc1
→ -1.8	-4	-23	-3.9
- COC(=O)c1cccc(-n2c(CCC(=O)O)ccc2-c2ccc(C)cc2)c1
→ nt	35	nt	-1.1
- COc1ccc(CNC(=O)Nc2ncc([N+](=O)[O-])s2)cc1
→ -0.43	87*	49	6.2
- CC(=O)Oc1ccc2c(c1OC(C)=O)OCC1(O)Cc3c(cc(OC(C)=O)c(OC(C)=O)c3OC(C)=O)C21 (stereo unspecified)
→ 0.89	0	-26	-0.8
- Cc1cc(C(F)(F)F)nc2c(Br)c(C(C)(C)C)nn12
→ -0.2	-5	1	0.1

Entries above that have bromine (3):
Below each SMILES: YB-1 expr inh	MITF inhib	Shh pathway inh	PD-1 reversal
- Cc1nn(Cc2nc(C(C)(C)C)cs2)c(C)c1Br
→ 0.075	-9	12	-0.8
- Cc1c(Br)c([N+](=O)[O-])nn1CC(=O)Nc1cccnc1
→ nt	-5	nt	1.5
- Cc1cc(C(F)(F)F)nc2c(Br)c(C(C)(C)C)nn12
→ -0.2	-5	1	0.1

Bioassay records deposited in PubChem by Broad Institute.

The list is partial, so the mix of outcomes need not match the whole.
